Screening results from PubChem.
FGF22 binding: shifts melting point of recombinant human FGF22 | calls only at 9.99 µM | Q9HCT0 | 340,000 tested, 1.5% active | AID 651658 | recombinant FGF22 thermal shift, SYPRO orange fluorescence; percent of sucrose octasulfate shift, DMSO zero;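 active means melting point raised past a set limit in the mean and every replicate; inconclusive means no clear call; three in four hits are not shown here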
Target sequence (Q9HCT0 whole entry, looked up): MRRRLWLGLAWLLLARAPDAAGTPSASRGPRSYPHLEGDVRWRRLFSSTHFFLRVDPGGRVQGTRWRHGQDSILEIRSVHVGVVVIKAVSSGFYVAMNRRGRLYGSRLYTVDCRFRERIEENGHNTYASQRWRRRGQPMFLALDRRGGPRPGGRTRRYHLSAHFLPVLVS
MLL AF4-AF9 inh: blocks AF4 peptide binding to human AF9; AlphaScreen, biotin-AF4 peptide binding to FLAG-AF9; inhibition, % at 10 µM; 350,000 tested, 0.47% active; AID 651704;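 active means every replicate reaching a set inhibition limit, whatever the replicate mean, cut at about 25% in these data; inconclusive means mean inhibition reaches that limit but some replicates miss it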;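 further: 0% = plate neutral control median and 100% = total signal loss; the record names both 10 and 1 µM as test concentration; the first replicate is given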
Target sequence (P42568 whole entry, looked up): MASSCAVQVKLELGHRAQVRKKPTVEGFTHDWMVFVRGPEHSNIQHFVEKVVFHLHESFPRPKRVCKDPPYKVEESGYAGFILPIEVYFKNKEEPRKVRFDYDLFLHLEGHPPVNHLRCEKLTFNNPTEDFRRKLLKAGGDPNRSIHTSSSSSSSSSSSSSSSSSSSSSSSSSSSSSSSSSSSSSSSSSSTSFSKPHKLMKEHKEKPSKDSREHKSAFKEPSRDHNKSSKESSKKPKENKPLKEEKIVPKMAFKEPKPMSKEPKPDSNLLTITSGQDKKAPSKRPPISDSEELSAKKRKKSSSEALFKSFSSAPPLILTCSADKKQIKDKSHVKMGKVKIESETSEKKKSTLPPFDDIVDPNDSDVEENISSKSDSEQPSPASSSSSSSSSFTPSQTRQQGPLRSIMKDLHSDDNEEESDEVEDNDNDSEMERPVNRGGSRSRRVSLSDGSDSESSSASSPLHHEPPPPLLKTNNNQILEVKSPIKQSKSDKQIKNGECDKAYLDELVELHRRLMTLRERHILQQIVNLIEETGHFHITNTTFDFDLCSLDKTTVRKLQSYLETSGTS
Ecoli rRNA inh: inhibitors of bacterial rRNA selective over humanized ribosomes; E. coli WT GFP vs humanized-ribosome RFP mutants, fluorescence, 24 h; hits give low values; DMSO median 0, no signal -100; GFP signal change (wild-type ribosome), % (test concentration not listed); 350,000 tested, 1.6% active; AID 720706;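 active means significant combined selectivity score with lowered wild-type GFP, culture density cut under 30%, mutant RFP and density less affected; inactive means any of these conditions unmet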; further: one replicate is shown; some compounds called inactive have numbers as strong as hits
ALR H2O2 inh: inhibitors of human sulfhydryl oxidase ALR; inhibition, % (test concentration not listed); 290,000 tested, 3.8% active; AID 485317; purified ALR, DTT oxidation, H2O2 HRP-luminol luminescence; P55789;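 active means mean and each replicate at 75% or more; inconclusive means only one of the two met; inactive means neither met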;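 further: stock transfer was 7.5 nL into about 7.5 µL; 0% = neutral wells and 100% = wells with inactivated enzyme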
Target sequence (P55789 whole entry, looked up): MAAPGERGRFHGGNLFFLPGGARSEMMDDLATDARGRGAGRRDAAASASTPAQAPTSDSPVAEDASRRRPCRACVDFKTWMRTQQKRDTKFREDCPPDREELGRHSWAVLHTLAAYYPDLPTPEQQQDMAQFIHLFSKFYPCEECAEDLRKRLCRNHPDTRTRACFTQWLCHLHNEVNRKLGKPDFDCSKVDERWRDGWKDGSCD
Beta apoptosis: blocks beta cell apoptosis; protection from apoptosis, % (concentration not given with the values); AID 435005; 300,000 tested, 0.8% active; INS-1E cytokine-induced death, ATP luminescence, 48 h; percent of positive-control rescue, neutral wells zero;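 active means all replicates at 75% or more, or half of them and the mean; inconclusive means half reach 75% but not the mean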;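 further: 0% = cytokine-treated negative control wells and 100% = positive control rescue; higher means more ATP so stronger rescue from cytokine killing; wells of about 40 µL received 100 nL stock; the first replicate is given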
Calb FLC: C. albicans growth modulation with fluconazole; 300,000 tested, 0.57% active; growth inhibition, % (test concentration not listed); C. albicans CaCi-2 (fluconazole-resistant clinical isolate) + fluconazole, Alamar Blue growth, 48 h;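 active means most replicates above 75%; inconclusive means exactly half above 75%; inactive means most below 75%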;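 further: all wells also contain fluconazole at 8 µg/ml as a sub-toxic cotreatment; 0% = median of DMSO wells and 100% = median of geldanamycin control wells; wells of about 8 µL received 7.5 nL stock; the first replicate is given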
T cruzi inh: blocks replication of Trypanosoma cruzi; T. cruzi beta-gal in NIH3T3, luminescence, 90 h; inhibition, % (test concentration not listed); 300,000 tested, 1.4% active;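 active means mean inhibition across valid replicates above about 55%, limit read from the data; inconclusive means mean below that limit but half or more replicates reach it; inactive means mean below it, under half of replicates reach it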;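 further: signal also drops with host cell toxicity which is not excluded here; 0% = plate median of DMSO wells and 100% = zero luminescence signal; higher percent means less beta-gal luminescence so fewer parasites; stock transfer was 50 nL into about 50 µL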
RanGTP-Impb inh: disruptors of Ran-importin-beta complex formation – biochemical, FRET, CFP-Ran, YFP-importin-beta, homogeneous, primary screen. cell-free CFP-Ran/YFP-importin-beta FRET ratio. inhibition, % (concentration not given with the values). 300,000 tested, 1.1% active. AID 2216;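 active means most replicates above 15%; inconclusive means exactly half above 15%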;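 further: 0% = DMSO wells and 100% = Ran loaded with GDP instead of GTP; wells of about 40 µL received 100 nL stock; the first replicate is given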
Ecoli rRNA inh OD600: further read-out of Ecoli rRNA inh, marked with its call; OD600 change, %; measured here: OD600 growth;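 optical density of the mix in the first replicate; 0 = DMSO median and -100 = no signal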
Ecoli rRNA inh RFP: second read-out of Ecoli rRNA inh, no call of its own (marks repeat the call); RFP signal change, %; measured here: RFP humanized mutant strains;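 first replicate; 0 = DMSO median and -100 = no signal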
* = called active by the depositor; i = inactive; u = inconclusive; x = not tested or not shown; + = active, no number.

structure	FGF22 binding	MLL AF4-AF9 inh	Ecoli rRNA inh	Ecoli rRNA inh OD600	Ecoli rRNA inh RFP	ALR H2O2 inh	Beta apoptosis	Calb FLC	T cruzi inh	RanGTP-Impb inh
O=C(ONC1=NCCCCC1)c1cccc([N+](=O)[O-])c1	i	-4.2	2	2	-1.4	0	5	58	17	4.5
Cc1c(C)c2c(OCC(=O)NCC(=O)NCC(=O)O)cc3c(c2oc1=O)CCC(C)(C)O3	i	0.0	6	13	0.2	x	-5	-1	4	5.7
CC(C)C[C@H](NC(=O)OC(C)(C)C)C(=O)N[C@@H](CO)[C@H](O)[C@@H]1C[C@@H]1C(=O)NC1CC1	i	-9.0	6	-7	9.4	1	4	-1	-12	-0.5
CC(C)CCN1CCN(Cc2cccn2-c2nccs2)CC1CCO (stereo not given)	i	-0.6	-2	2	-2.0	1	3	-21	-5	3.6
Cc1cccc(Sc2c([N+](=O)[O-])ncn2C)n1	x	x	x	x	x	26	0	-9	-4	0.7
Cc1ccc(SCc2ccc(C(=O)Nc3ccccc3Br)cc2)cc1	i	2.2	x	x	x	2	2	4	4	-2.4
COc1ccccc1NC(=O)c1ccc(NC(=O)c2nc3nccc(C)n3n2)cc1	i	-0.7	-5	-9	1.1	5	7	x	x	x
CC(OC(=O)CCc1c[nH]c2ccccc12)C(=O)c1ccccc1 (stereo not given)	i	3.9	-25*	-4.1*	1.8*	x	6	-6	-2	-1.5
O=C(CN1CCN(S(=O)(=O)c2ccc(Br)cc2)CC1)N/N=C/c1ccc(Br)s1	x	12	-10	-19	29	-10	-3	-13	63*	-2.4
CCn1c(=N)n(CCO)c2ccccc21	x	x	x	x	x	-3	x	3	2	1.0
CCOC(=O)c1cnc2c(ccc3ccccc32)c1NCCCN(C)C	i	0.2	-26*	-13*	9.4*	-18	17	10	u	1.9
CCSCc1nnc(SCC(=O)Nc2cccc(C(C)=O)c2)n1C	i	0.5	10	-3	-1.5	-1	-2	-10	-9	-16
O=C(NCCN1C(=O)S/C(=C\c2ccccc2F)C1=O)C1CC(=O)N(Cc2ccccc2)C1 (stereo not given)	i	6.2	-17	-21	3.2	x	-7	x	x	x
CCOc1ccc(NC(=O)CN(C)C(=O)c2ccc3nc(CC)c(CC)nc3c2)cc1OCC	x	-0.1	1	0	-0.2	2	-5	-1	0	x
CCCC(=O)N(c1ccc2oc(=O)sc2c1)S(=O)(=O)c1ccccc1	x	x	x	x	x	4	-13	5	15	1.8
CSc1cccc(NC(=O)c2cnccn2)c1	x	x	x	x	x	72	-5	11	-7	-2.3
O=S1(=O)[C@H]2C[C@@H]3C=C[C@@]2(CN1Cc1ccc(Cl)cc1)O3	i	-1.1	26	18	15	u	-1	-1	-17	0.0
C/C(N)=C(/C#N)C(=O)CSc1ccc2c(c1)OCCO2	x	x	x	x	x	23	7	-4	-12	u
O=C(NCc1ccc2c(c1)OCO2)C1CCCN(S(=O)(=O)c2cccnc2)C1 (stereo not given)	i	-12	2	-3	-2.5	16	-7	-2	-2	12
O=C(CSc1ccc(Br)cc1)N1CCN(C(=O)c2ccco2)CC1	i	1.0	-23	-24	-4.2	-6	0	10	-8	2.4

An excerpt of these results, with values under each structure.
Under each structure: FGF22 binding, MLL AF4-AF9 inh, Ecoli rRNA inh, Ecoli rRNA inh OD600, Ecoli rRNA inh RFP, ALR H2O2 inh, Beta apoptosis, Calb FLC, T cruzi inh, RanGTP-Impb inh
> CCOc1ccc(NC(=O)CN(C)C(=O)c2ccc3nc(CC)c(CC)nc3c2)cc1OCC
  x, -0.1, 1, 0, -0.2, 2, -5, -1, 0, x
> O=S1(=O)[C@H]2C[C@@H]3C=C[C@@]2(CN1Cc1ccc(Cl)cc1)O3
  i, -1.1, 26, 18, 15, u, -1, -1, -17, 0.0

Carrying on.
structure	FGF22 binding	MLL AF4-AF9 inh	Ecoli rRNA inh	Ecoli rRNA inh OD600	Ecoli rRNA inh RFP	ALR H2O2 inh	Beta apoptosis	Calb FLC	T cruzi inh	RanGTP-Impb inh
Cc1ccc(C(=O)N/C(=C\c2cccs2)C(=O)N2CCCCCC2)cc1	x	x	x	x	x	13	2	1	1	-1.2
Fc1ccc(NC(=S)N2CCCCC2)cc1	x	x	x	x	x	5	-5	1	-82	5.7
Cc1ccc(NC(=O)COC(=O)Cc2ccsc2)c(C)c1	i	-2.4	18	15	3.0	-10	x	-6	0	19*
Cc1cc(C)n(S(=O)(=O)c2ccccc2)n1	i	-46	9	6	-7.1	4	-3	-5	-9	2.7
Cc1cccc(C)c1OCCCCCNCCO	i	2.6	12	0	2.3	-3	1	-9	10	2.1
O=C(NC(=S)Nc1ccccc1F)c1ccc(Br)o1	i	-0.9	2	2	-1.3	x	-17	10	3	5.8
COc1ccccc1C(CNC(=O)c1ccc(-c2ccccc2Cl)o1)N1CCCC1 (stereo not given)	i	11	-13	-19	4.8	4	16	-1	24	11
Cc1c(C(=O)OCC(=O)NCc2ccc3c(c2)OCO3)cccc1[N+](=O)[O-]	x	x	x	x	x	-20	-1	4	-10	4.0
CC(C)CCNC(=O)CC1Nc2c3ccccc3nc(=S)n2C1=O (stereo not given)	x	x	x	x	x	50	4	-7	-12	-1.9
COc1ccc(C2C(Oc3ccccc3C)C(=O)N2Cc2ccc(F)cc2)cc1OC (stereo not given)	x	x	x	x	x	-4	4	8	30	3.2
Cc1cc(C)c2ccc(NN)nc2c1O	x	x	x	x	x	x	5	58	16	0.1
O=C1c2cccc3cccc(c23)C(=O)N1CC1CCN(CC(O)COCc2ccc3c(c2)OCO3)CC1 (stereo not given)	x	x	x	x	x	-31	15	-33	41	1.1
O=C(COC(=O)c1ccc(Cl)nc1)NNC(=O)c1ccc(Cl)cc1	i	-0.4	3	7	2.5	-25	0	3	-15	-0.1
CC(O)CN(Cc1ccc(Cl)cc1)CC(C)O (stereo not given)	x	x	x	x	x	-6	-4	19	3	-2.1
CCc1nc(SCC(=O)Nc2cccc3ccccc23)[nH]c(=O)c1C	i	1.0	3	8	1.3	-7	-9	-1	-7	5.9
CN(Cc1cccc(Cl)c1Cl)C(=O)c1cc(S(=O)(=O)N2CCOCC2)ccc1F	i	2.6	-5	-60	-3.3	-42	-16	x	x	x
CCc1cc(C(=O)OC)c(NC(=O)c2cc(Br)cs2)s1	i	-41	13	14	1.5	-7	-2	29	28	-2.9
Cc1cc2c(C)cc(=O)[nH]c2cc1NC(=O)CCl	i	-4.6	4	0	0.5	37	-15	2	12	-2.6
Cc1nc(-c2cccs2)ccc1C(=O)O	i	-1.3	3	4	2.6	-13	-2	20	-23	-2.6
CC(C)[C@H](NC(=O)c1ccccc1)C(=O)N1CCc2ccccc21	i	-3.0	5	5	3.1	x	1	-3	6	1.4

Some of these compounds in order of molecular weight, lowest first.
structure	FGF22 binding	MLL AF4-AF9 inh	Ecoli rRNA inh	Ecoli rRNA inh OD600	Ecoli rRNA inh RFP	ALR H2O2 inh	Beta apoptosis	Calb FLC	T cruzi inh	RanGTP-Impb inh
CCn1c(=N)n(CCO)c2ccccc21	x	x	x	x	x	-3	x	3	2	1.0
O=C(ONC1=NCCCCC1)c1cccc([N+](=O)[O-])c1	i	-4.2	2	2	-1.4	0	5	58	17	4.5
C/C(N)=C(/C#N)C(=O)CSc1ccc2c(c1)OCCO2	x	x	x	x	x	23	7	-4	-12	u
O=C(NC(=S)Nc1ccccc1F)c1ccc(Br)o1	i	-0.9	2	2	-1.3	x	-17	10	3	5.8
O=C(COC(=O)c1ccc(Cl)nc1)NNC(=O)c1ccc(Cl)cc1	i	-0.4	3	7	2.5	-25	0	3	-15	-0.1
Cc1c(C(=O)OCC(=O)NCc2ccc3c(c2)OCO3)cccc1[N+](=O)[O-]	x	x	x	x	x	-20	-1	4	-10	4.0
COc1ccccc1C(CNC(=O)c1ccc(-c2ccccc2Cl)o1)N1CCCC1 (stereo not given)	i	11	-13	-19	4.8	4	16	-1	24	11
CN(Cc1cccc(Cl)c1Cl)C(=O)c1cc(S(=O)(=O)N2CCOCC2)ccc1F	i	2.6	-5	-60	-3.3	-42	-16	x	x	x
CCOc1ccc(NC(=O)CN(C)C(=O)c2ccc3nc(CC)c(CC)nc3c2)cc1OCC	x	-0.1	1	0	-0.2	2	-5	-1	0	x
O=C(NCCN1C(=O)S/C(=C\c2ccccc2F)C1=O)C1CC(=O)N(Cc2ccccc2)C1 (stereo not given)	i	6.2	-17	-21	3.2	x	-7	x	x	x
O=C1c2cccc3cccc(c23)C(=O)N1CC1CCN(CC(O)COCc2ccc3c(c2)OCO3)CC1 (stereo not given)	x	x	x	x	x	-31	15	-33	41	1.1

The list goes on.
structure	FGF22 binding	MLL AF4-AF9 inh	Ecoli rRNA inh	Ecoli rRNA inh OD600	Ecoli rRNA inh RFP	ALR H2O2 inh	Beta apoptosis	Calb FLC	T cruzi inh	RanGTP-Impb inh
Cc1ccc(N2CCN(/N=C/c3cccs3)CC2)cc1	i	-15	11	0	-3.8	-1	3	-7	-3	-3.1
O=C(Nc1nnc(-c2ccccc2SCc2ccccc2F)s1)Nc1ccccc1F	x	x	x	x	x	x	25	-5	-3	-2.0
CCOC(=O)C1(O)CSc2nc3sc(C(=O)O)c(C)c3c(=O)n21 (stereo not given)	x	x	16	6	1.4	20	0	1	4	-0.1
COc1c(C(=O)N2CCCC2)ccc2ccccc12	x	x	x	x	x	-4	-5	-10	-11	2.4
O=C(CCCNS(=O)(=O)c1cccc2nsnc12)NC1CCCCC1	x	x	x	x	x	37	-3	-1	0	-5.5
Cc1cccc(C(=O)NNC(=O)c2ccc(NS(=O)(=O)c3cccs3)cc2)c1C	+	-0.3	-2	-7	-1.8	-2	3	x	x	x
COc1ccc(-n2c(SCC3OCCO3)nc3c(sc(=S)n3-c3ccccc3)c2=O)cc1OC	i	3.5	-6	-10	-2.6	-2	6	-8	53	1.4
CCOC(=O)Cc1nn(Cc2ccccc2)c(=O)c2ccccc12	i	-2.0	-26*	-16*	-4.5*	3	-6	8	8	-0.3
CC(C)(Oc1ccc(Cl)cc1)C(=O)NCC(c1cccs1)N1CCOCC1 (stereo not given)	i	u	1	5	-2.4	1	-2	3	-1	-2.5
COc1ccc(CCNC(=O)COC(=O)/C=C/c2ccc3c(c2)OCO3)cc1OC	i	-0.1	-8	-15	-1.3	36	-2	x	x	x
O=c1oc2ccccc2c(NCCO)c1[N+](=O)[O-]	i	-0.7	4	2	-8.7	-12	-5	-8	-17	9.9
Cc1ccccc1-c1nc(CSc2nc3c(c(=O)[nH]2)CCC3)c(C)o1	i	-4.3	3	2	1.8	13	-7	-14	-4	6.7
Nc1nc2n(n1)C(=O)CC(c1ccccc1)N2 (stereo not given)	i	-0.7	11	9	0.1	5	-4	4	8	2.7
O=C(COc1ccccc1)NCC(=O)N/N=C/c1ccccc1	x	x	x	x	x	0	-6	3	-4	1.2
O=C(O)c1ccccc1Nc1ccnc(C(F)(F)F)c1	i	-2.3	1	-6	-1.6	3	-3	1	-6	3.1
COCc1cc(C)nc(Nc2ccccc2C)c1C#N	i	1.6	-1	-4	-1.3	-4	-4	38	12	0.0

Only part of the results is shown; the hit share may differ from the screen's.
